# Screening results: PubChem BioAssay, several laboratories
# T cruzi repl: inhibitors of intracellular T. cruzi growth, primary screen, luminescence, NIH3T3 host cells | inhibition, % (no concentration beside the values) | 1.4% of 300,000 active | T. cruzi beta-gal in NIH3T3, 90 h;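 active means mean inhibition across valid replicates above about 55%, limit read from the data; inconclusive means mean below that limit but half or more replicates reach it; inactive means mean below it, under half of replicates reach it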;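 further: signal also drops with host cell toxicity which is not excluded here; 0% = plate median of DMSO wells and 100% = zero luminescence signal; higher percent means less beta-gal luminescence so fewer parasites; stock transfer was 50 nL into about 50 µL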
# Ecoli rRNA inh: reduced GFP signal of wild-type E. coli, primary screen, bacterial rRNA inhibitor project, GFP/RFP fluorescence, OD600, single point; AID 720706, 2013; 1.6% of 350,000 active; E. coli WT GFP vs humanized-ribosome RFP mutants, 24 h; active compounds read low; DMSO median 0, no signal -100; GFP signal change (wild-type ribosome), % (test concentration not listed);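 active means significant combined selectivity score with lowered wild-type GFP, culture density cut under 30%, mutant RFP and density less affected; inactive means any of these conditions unmet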; further: one replicate is shown; some compounds called inactive have numbers as strong as hits
# AF4-AF9 inh: inhibitors of AF4 peptide binding to AF9, primary screen, biochemical, AlphaScreen, biotin-AF4 peptide, FLAG-AF9, single point. inhibition, % at 10 µM. 0.47% of 350,000 active;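 active means every replicate reaching a set inhibition limit, whatever the replicate mean, cut at about 25% in these data; inconclusive means mean inhibition reaches that limit but some replicates miss it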;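 further: 0% = plate neutral control median and 100% = total signal loss; the record names both 10 and 1 µM as test concentration; the first replicate is given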
# Target sequence (P42568 whole entry, looked up): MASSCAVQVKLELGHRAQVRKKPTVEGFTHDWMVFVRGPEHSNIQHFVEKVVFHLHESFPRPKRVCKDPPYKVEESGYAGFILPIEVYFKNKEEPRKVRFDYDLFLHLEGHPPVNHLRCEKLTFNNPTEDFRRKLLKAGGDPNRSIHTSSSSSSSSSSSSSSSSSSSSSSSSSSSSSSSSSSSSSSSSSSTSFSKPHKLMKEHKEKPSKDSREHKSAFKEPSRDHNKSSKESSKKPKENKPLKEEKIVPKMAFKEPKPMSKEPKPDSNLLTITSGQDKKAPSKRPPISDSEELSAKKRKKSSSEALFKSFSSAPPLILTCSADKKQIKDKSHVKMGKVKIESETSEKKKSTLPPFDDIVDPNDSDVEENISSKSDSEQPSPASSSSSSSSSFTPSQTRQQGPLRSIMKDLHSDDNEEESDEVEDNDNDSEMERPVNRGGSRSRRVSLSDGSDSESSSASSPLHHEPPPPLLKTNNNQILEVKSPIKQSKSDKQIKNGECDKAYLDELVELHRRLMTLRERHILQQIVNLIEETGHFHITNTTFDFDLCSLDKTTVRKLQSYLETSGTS
# Vif A3G: inhibitors of Vif binding to APOBEC3G peptide, primary screen, biochemical, TR-FRET, GST-Vif 1-94, biotin-A3G peptide, dose response retest (AID 1117319); inhibition, %, or IC50 in µM where a hit was titrated; 0.57% of 260,000 active; TR-FRET GST-Vif / biotin-A3G peptide binding; higher % means a stronger effect; test concentration not given here; strong numbers were not always called active; Virion infectivity factor (Human immunodeficiency virus type 1 group M subtype B (isolate …;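 active means above the screen mean plus three standard deviations and confirmed in dose response; inconclusive means results disagree or hit not tested in dose response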;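 further: Vif residues 1-94 fused to GST binding biotinylated APOBEC3G peptide 110-148; 0% = full assay without inhibitor and 100% = GST in place of GST-Vif; retest series ran down from 100 µM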
# RanGTP-Impb inh: inhibitors of RanGTP-importin-beta interaction, primary screen, biochemical, FRET, CFP-Ran, YFP-importin-beta, homogeneous; 1.1% of 300,000 active; AID 2216, 2009; inhibition, % (concentration not given with the values); cell-free CFP-Ran/YFP-importin-beta FRET ratio;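 active means most replicates above 15%; inconclusive means exactly half above 15%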;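 further: 0% = DMSO wells and 100% = Ran loaded with GDP instead of GTP; wells of about 40 µL received 100 nL stock; the first replicate is given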
# Beta cell apopt: inhibitors of cytokine-induced beta cell apoptosis, primary screen, luminescence; INS-1E cytokine-induced death, ATP luminescence, 48 h; percent of positive-control rescue, neutral wells zero; protection from apoptosis, % (test concentration not listed); 0.8% of 300,000 active; AID 435005, 2010;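 active means all replicates at 75% or more, or half of them and the mean; inconclusive means half reach 75% but not the mean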;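 further: 0% = cytokine-treated negative control wells and 100% = positive control rescue; higher means more ATP so stronger rescue from cytokine killing; wells of about 40 µL received 100 nL stock; the first replicate is given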
# Bfl-1 A1 inh: caspase 3/7 activation in MEF A1-2A-BIM cells, primary screen, A1 inhibitor project, cell-based, luminescence, HTS; AID 2462, 2010; caspase activation, % (no concentration beside the values); 0.066% of 330,000 active; Caspase-Glo 3/7 luminescence, 3 h; percent of clofoctol response, vehicle zero;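 active means over half of replicate activation scores above 10%, or exactly half above 10 with the replicate mean above 10; inconclusive means replicate mean below 10 yet half the replicates above 10; inactive means over half of replicates below 10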;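 further: wells of about 30 µL received 50 nL stock; many hits fall short of the cut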
# Calb FLC: C. albicans growth inhibition with fluconazole, primary screen, CaCi-2 strain, Alamar Blue fluorescence | growth inhibition, % (no concentration beside the values) | C. albicans CaCi-2 (fluconazole-resistant clinical isolate) + fluconazole, 48 h | 0.57% of 300,000 active;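 active means most replicates above 75%; inconclusive means exactly half above 75%; inactive means most below 75%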;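 further: all wells also contain fluconazole at 8 µg/ml as a sub-toxic cotreatment; 0% = median of DMSO wells and 100% = median of geldanamycin control wells; wells of about 8 µL received 7.5 nL stock; the first replicate is given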
# Ecoli rRNA inh OD600: recorded beside Ecoli rRNA inh, whose call it bears; OD600 change, %; measured here: OD600 growth;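 optical density of the mix in the first replicate; 0 = DMSO median and -100 = no signal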
# Ecoli rRNA inh RFP: also measured in Ecoli rRNA inh; calls as there; RFP signal change, %; measured here: RFP humanized mutant strains;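 first replicate; 0 = DMSO median and -100 = no signal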
# * marks the source's active call; other numbers are inactive results; ? = inconclusive; . = no result given; & = joins results of further samples. This is a subset. The share of hits here may be higher or lower than overall.
SMILES,T cruzi repl,Ecoli rRNA inh,Ecoli rRNA inh OD600,Ecoli rRNA inh RFP,AF4-AF9 inh,Vif A3G,RanGTP-Impb inh,Beta cell apopt,Bfl-1 A1 inh,Calb FLC
O=C(CCS(=O)(=O)c1cccs1)Nc1ccc(C(=O)NC2CCCC2)cc1,5,3,7,-2.9,-1.1,-12%,-2.2,-3,0.8,0
COC(=O)Cc1[nH]nc2c1C1(C(=O)N(Cc3ccccc3)c3ccccc31)C(C#N)=C(N)O2 (stereo unspecified),-10,.,.,.,.,7%,0.5,-3,0.4,1
COc1ccc(C2N(c3ccc(F)cc3)C(=O)C3CCCN32)cc1 (stereo unspecified),-1,3,7,-1.7,-0.5,2%,-1.2,2,-0.5,-9
COCc1nnc(NS(=O)(=O)c2ccc(C)cc2)s1,0,.,.,.,.,?,-2.1,-1,0.4,-14
CN(C)c1ccc(CN(C)C2CCCCC2)cc1,12,.,.,.,.,23%,3.5,-2,-0.5,3
NS(=O)(=O)c1ccc(CCNC(=O)C(=O)NCC2OCCN2S(=O)(=O)c2ccc(Cl)cc2)cc1 (stereo unspecified),1,1,6,-2.1,6.4,.,1.8,4,0.7,1
CC1=C(C(=O)OC(C)C)C(c2ccncc2)n2ncnc2N1 (stereo unspecified),-6,.,.,.,.,-3%,-2.4,-1,0.2,3
Cc1nc(CSc2ccc(Cl)cc2)cc(NCc2ccccc2)n1,-13,.,.,.,.,-2%,-1.8,-10,-0.3,0
CCOc1ccc2nc3ccc4[nH]onc4c3c2c1,25,.,.,.,.,.,-9.9,8,0.5,24
CN1CCC(=O)N([C@H](CSc2ccccc2)c2ccccc2)CC1,-14,3,-9,-4.8,-4.5,.,-1.6,-8,0.2,-14
O=C(NCc1ccc2c(c1)OCO2)C1CCN(C(=O)Nc2ccc(Cl)cc2)CC1,-11,.,.,.,.,3%,?,.,0.4,-20
COC(=O)CCC(=O)Nc1cccc2ccccc12,17,3,19,-4.4,.,-1%,-3.8,1,0.4,1
O=C(N=C1SC2CS(=O)(=O)CC2N1c1ccccc1Cl)C1CCCO1 (stereo unspecified),6,5,7,-0.3,-5.3,5%,2.1,-4,0.1,-9
CCc1nnc(NC(=O)CSc2nnc3scc(-c4ccc(C)cc4)n23)s1,-7,.,.,.,.,-10%,-1.1,0,-0.2,-7
O=C(NCC(=O)N1CCN(c2ncccn2)CC1)c1ccccc1OC(F)F,.,-1,3,-3.7,-2.2,-1%,.,2,-0.3,.
CC(=O)c1c(C)[nH]c(C(=O)OCC(=O)N2CCc3ccccc3C2)c1C,.,-22*,-15*,0.0*,-0.7,-10%,.,0,0.3,.
[O-][n+]1c2c(nn1-c1ccccc1)/C(=N/O)CCC2,-9,2,3,0.4,-1.8,-8%,-3.0,2,-2.2,-10
CCOC(=O)Cc1cc(=O)n2[nH]c(C)c(C#N)c2n1,-14,.,.,.,.,-1%,2.2,0,0.5,8
O=C(Nc1ccc(C(=O)N2CCCC2)cc1)c1ccccc1Br,-7,12,5,1.3,-0.3,.,3.2,2,-1.7,1
COCCNc1cc(C)nc2ccccc12,11,.,.,.,.,14%,0.7,11,-0.5,1

# 3 of these compounds, reformatted.
Compound | T cruzi repl | Ecoli rRNA inh | Ecoli rRNA inh OD600 | Ecoli rRNA inh RFP | AF4-AF9 inh | Vif A3G | RanGTP-Impb inh | Beta cell apopt | Bfl-1 A1 inh | Calb FLC
O=C(NCC(=O)N1CCN(c2ncccn2)CC1)c1ccccc1OC(F)F | . | -1 | 3 | -3.7 | -2.2 | -1% | . | 2 | -0.3 | .
Cc1nc(CSc2ccc(Cl)cc2)cc(NCc2ccccc2)n1 | -13 | . | . | . | . | -2% | -1.8 | -10 | -0.3 | 0
CN(C)c1ccc(CN(C)C2CCCCC2)cc1 | 12 | . | . | . | . | 23% | 3.5 | -2 | -0.5 | 3

# The list continues:
SMILES,T cruzi repl,Ecoli rRNA inh,Ecoli rRNA inh OD600,Ecoli rRNA inh RFP,AF4-AF9 inh,Vif A3G,RanGTP-Impb inh,Beta cell apopt,Bfl-1 A1 inh,Calb FLC
COc1cccc(NC(=O)CCCCCn2nnc3ccccc3c2=O)c1,5,1,2,1.3,-5.2,.,-3.9,2,-0.2,-2
O=C(CN1C(=O)c2ccccc2C1=O)OCc1nc2ccsc2c(=O)[nH]1,.,15,16,-1.9,-4.2,-15%,.,-7,0.6,.
CCCOc1ccc(-c2c(C(=O)N/N=C/c3ccco3)nnn2-c2nonc2N)cc1,5,0,-9,3.4,-1.9,.,-0.4,1,-1.3,47
FC(F)(F)c1cc(CCN2CCNC[C@@H]2CC2CCCCC2)cc(C(F)(F)F)c1,.,-53,-75,-33,18,.,.,3,0.1,.
CN(Cc1ccc(Cl)c(Cl)c1)C(=O)C1CSC2(C)CCC(=O)N12 (stereo unspecified),.,-4,-2,1.0,0.6,-11%,.,-1,0.0,.
CCCCC(=O)Nc1cc(NC(=O)CCCC)cc(C(=O)O)c1,-34,.,.,.,.,1%,-0.5,-6,-0.6,26
CCOc1ccccc1NC(=O)COc1ccc2ccc(=O)oc2c1,6,7,12,-3.6,-0.2,.,3.1,-10,-0.4,12
Cc1ccc(N=Nc2ccc(O)cc2)c(Br)c1,5,-47,-60,-11,15,.,-2.7,8,-4.1,-10
COc1ccc(N2CCCC2=N)c(OC)c1,-4,4,-5,-3.0,.,.,-1.3,-7,-0.1,-2
COc1ccc(CC(=O)NNC(=O)c2cccnc2)cc1OC,-15,14,8,4.1,-0.8,12%,-0.6,0,1.1,18
CCOC(=O)c1ccc(N2C(=O)CC(N3CCC(O)(c4ccc(Cl)cc4)CC3)C2=O)cc1 (stereo unspecified),-5,.,.,.,.,-1%,1.9,0,-3.4,-6
CC(=O)NC(Cc1ccc(C)cc1)C(=O)NC1CCN(C(=O)c2cnccn2)CC1 (stereo unspecified),5,.,.,.,.,9%&1%,-1.8,-2,-0.2,-31
Cc1ccc(OCC(=O)Nc2ccc(N3CCN(S(C)(=O)=O)CC3)cc2)c(C)c1,-7,-2,-2,-1.6,-2.0,3%,-0.2,0,0.3,2
C=CCn1c(C(C)NC(=O)c2ccc(C)cc2)n[nH]c1=S (stereo unspecified),-7,2,3,-3.4,-8.0,-4%,2.7,-10,-0.3,-6
NS(=O)(=O)c1ccc(CCNC(=O)CNC(=O)COc2ccccc2)cc1,-11,-3,3,-0.2,-3.3,3%,0.0,-5,0.8,8
COc1cccc(NC(=O)CN2C(=O)NC(C)(CC(C)C)C2=O)c1 (stereo unspecified),-15,13,1,1.1,4.8,0%,3.1,0,0.3,1
Cc1cc(C)nc(N/N=C/c2c(CO)cnc(C)c2O)n1,-22,-5,-5,-1.0,-5.1,.,1.6,-3,-0.2,10
Cn1c(Cl)c(/C=N/OC(=O)c2ccccc2Cl)c2ccccc21,-5,.,.,.,.,-4%,1.4,-6,0.4,2
COc1ccc(/C(O)=C2/C(=O)C(=O)N(c3ccccn3)C2c2cccc(Cl)c2)cc1 (stereo unspecified),-4,-26,-22,-12,-2.4,-15%,2.2,.,0.3,23
CN(CCc1cnn(C)c1)Cc1nc(CC2CC2)no1,-9,5,1,0.0,3.7,12%,0.3,-1,0.7,6

# Three of the entries above in order of their number in Ecoli rRNA inh RFP, highest first.
SMILES | Ecoli rRNA inh RFP
NS(=O)(=O)c1ccc(CCNC(=O)CNC(=O)COc2ccccc2)cc1 | -0.2
C=CCn1c(C(C)NC(=O)c2ccc(C)cc2)n[nH]c1=S (stereo unspecified) | -3.4
COc1ccc(/C(O)=C2/C(=O)C(=O)N(c3ccccn3)C2c2cccc(Cl)c2)cc1 (stereo unspecified) | -12

# More entries follow.
SMILES,T cruzi repl,Ecoli rRNA inh,Ecoli rRNA inh OD600,Ecoli rRNA inh RFP,AF4-AF9 inh,Vif A3G,RanGTP-Impb inh,Beta cell apopt,Bfl-1 A1 inh,Calb FLC
CC(C)[C@@H]1COC(c2cccc(C3=N[C@H](C(C)C)CO3)c2)=N1,3,-3,-2,-2.7,-1.0,.,-2.2,-2,?,-8
O=C1CC(c2ccccc2)CC(O)=C1C=NCCc1ccccc1 (stereo unspecified),-20,8,-8,-7.3,-1.4,-3%,?,2,0.3,3
COc1ccc2c(-c3ccccc3)cc(SC(C)C(N)=O)nc2c1 (stereo unspecified),5,7,-4,2.5,-1.5,-1%,1.5,-7,0.4,-20
C=CCn1c(SCC(=O)N(CC)C2CCS(=O)(=O)C2)nc2sc3c(c2c1=O)CCC3 (stereo unspecified),.,4,1,-1.5,2.4,-5%,.,4,0.2,.
CSc1ncccc1C(=O)OCn1nnc2ccccc2c1=O,2,.,.,.,.,-5%,0.0,-9,0.2,8
O=C(Cc1ccccc1)NCC(=O)Nc1ccccc1Br,2,3,5,0.8,-1.6,.,?,-6,0.7,3
COc1ccc(-c2noc(N3CCC(C(=O)NCCCN4CCCCC4)CC3)n2)cc1,-14,11,2,-1.2,1.1,.,3.7,-9,1.4,2
O=C(Cn1cc([N+](=O)[O-])cn1)Nc1nccs1,1,7,7,-11,-3.0,-2%,0.8,0,-0.5,-3
COc1ccc(CNC(=O)c2csnn2)cc1,-4,.,.,.,.,1%,-2.8,-8,-0.4,11
COC(=O)[C@@H]1C[C@@]2(O)[C@@H](O)[C@@H](O)[C@@H](O)C[C@H]2N1C/C=C/c1ccccc1,-22,0,2,-2.7,3.0,.,-8.7,1,1.1,-4
COC(=O)c1sc2ccccc2c1NC(=O)c1ccc(S(=O)(=O)N2CCCCC2C)cc1 (stereo unspecified),27,2,1,-0.3,3.1,32%,3.0,-5,0.6,-12
O=C(O)c1cc(Cl)c2c(c1)[C@@H]1C=CC[C@@H]1[C@H](c1ccc(S(=O)(=O)N3CCOCC3)cc1)N2,-13,.,.,.,.,?,-3.1,-4,1.1,0
O=C(c1noc2c1CCCC2)N1CCc2ccccc2C1,0,-5,-3,0.6,-2.3,-1%,7.2,-9,-1.3,-23
Cn1nnc(NC(=O)CSc2ccc(Cl)cc2)n1,0,.,.,.,.,13%,-3.2,1,0.5,5
O=C(C1CCN(c2ncnc3c2nc2n3CCCCC2)CC1)N1CCN(c2ccc(F)cc2)CC1,6,-13,-4,-6.2,2.3,.,8.0,8,-0.3,37
COc1cc(NC(=O)[C@@H]2CCCN(S(=O)(=O)c3cccc4cccnc34)C2)cc(OC)c1OC,.,-7,-13,-1.5,1.6,.,.,-1,-0.5,.
